YopH inh: inhibitors of Yersinia enterocolitica YopH tyrosine phosphatase. fluorescence Ex485/Em525. inhibition, %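 (about 10 µM by stock and volumes)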. hit rate 0.16% among 140,000;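 active = inhibition of 50% or more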;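 note: controls were vehicle for no effect and minimum signal wells for full effect; inactives centre near -20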
RecA intein inh: Mtb RecA intein splicing inhibition | P9WHJ3 | hit rate 0.75% among 290,000 | inhibition, %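 (about 9 µM by stock and volumes)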 | AID 2221 | cell-free RecA intein splicing, fluorescence; in the data active = inhibition above about 30%; inconclusive = no clear call, values can overlap the other calls;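 note: 0% = vehicle wells and 100% = reference inhibitor control wells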
Target sequence (P9WHJ3 whole entry, looked up): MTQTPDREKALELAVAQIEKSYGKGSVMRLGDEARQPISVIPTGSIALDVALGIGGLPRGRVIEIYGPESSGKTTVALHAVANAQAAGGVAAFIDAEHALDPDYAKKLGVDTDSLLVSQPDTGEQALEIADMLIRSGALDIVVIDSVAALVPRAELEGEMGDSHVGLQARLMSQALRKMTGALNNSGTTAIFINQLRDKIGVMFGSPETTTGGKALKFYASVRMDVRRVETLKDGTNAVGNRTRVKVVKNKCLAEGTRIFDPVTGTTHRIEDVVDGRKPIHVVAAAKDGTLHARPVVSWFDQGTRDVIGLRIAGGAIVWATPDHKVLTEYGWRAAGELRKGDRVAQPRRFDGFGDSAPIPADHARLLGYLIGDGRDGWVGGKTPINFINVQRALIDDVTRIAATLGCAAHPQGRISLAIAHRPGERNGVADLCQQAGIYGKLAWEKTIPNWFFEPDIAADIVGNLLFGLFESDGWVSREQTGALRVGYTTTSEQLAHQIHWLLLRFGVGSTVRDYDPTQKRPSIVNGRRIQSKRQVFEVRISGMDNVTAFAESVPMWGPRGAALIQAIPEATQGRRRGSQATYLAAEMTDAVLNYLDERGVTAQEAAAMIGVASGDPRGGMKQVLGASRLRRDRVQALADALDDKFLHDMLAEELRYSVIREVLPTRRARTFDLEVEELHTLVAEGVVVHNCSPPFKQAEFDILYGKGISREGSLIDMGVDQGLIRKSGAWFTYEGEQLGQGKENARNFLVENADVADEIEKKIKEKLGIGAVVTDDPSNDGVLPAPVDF
Mtb growth: M. tuberculosis H37Rv growth inhibitors, H37Rv strain (AID 1626); M. tuberculosis H37Rv growth inhibition; higher % means a stronger effect; inhibition, % at 10 µM; hits with a dose series show IC50 in µM; hit rate 0.95% among 220,000;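 active = confirmed in a dose series; inconclusive = inhibition above 80% but not taken into the dose series; inactive = below 80% or under 30% at every dose of the series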;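 note: bacteria incubated seven days before Alamar blue readout; 0% = bacteria only wells and 100% = bacteria with antibiotic wells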
Arbovirus inh: arbovirus infection inhibition. arbovirus infection cell-based antiviral screen. inhibition, % at 10 µM. hit rate 0.37% among 200,000. AID 1251;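 active = inhibition from about 30%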;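 note: bluetongue infection of BSR cells; cell survival read as ATP light after 72 h; 0% = infected wells without compound and 100% = uninfected wells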
Mtb bLac sens: beta-lactam sensitization of Mtb H37Rv; M. tuberculosis H37Rv growth with meropenem, percent inhibition; hits of this screen are not shown here; inhibition, % at 25 µM; hit rate 0.27% among 330,000; AID 434955;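 active = about 74% or more and at least 40 points above the plate without the antibiotic, then above 30% in a dose series; inconclusive = first-round hits that could not be retested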;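 note: growth measured after seven days incubation then overnight dye step; 0% = bacteria only wells and 100% = bacteria with antibiotic; twin plates without the antibiotic show which effects depend on it; some results filed as inactive read as strong as hits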
Arbovirus inh repeat: recorded beside Arbovirus inh, whose call it bears; inhibition, %; measured here: 10K subset replicate screen; many hits read low in the repeat;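 first of two repeat runs on a subset; 0% = infected and 100% = uninfected wells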
* marks the source's active call; other numbers are inactive results; & = joins results of further samples.

The first three compounds as a preview:
How did COc1cc(CN2CCC(C(=O)N3CCN(c4ccccc4F)CC3)CC2)cc(OC)c1OC do in these assays?
YopH inh: -12; RecA intein inh: -1.3; Mtb growth: 3%; Arbovirus inh: -8; Mtb bLac sens: -3

Results for Cc1cccc(NC(=O)CCNS(=O)(=O)c2cccc3nonc23)c1 ?
RecA intein inh: -2.1; Mtb growth: 1%; Arbovirus inh: -6; Mtb bLac sens: 1

How did COc1cc(-c2nn3c(COc4ccccc4)nnc3s2)cc(OC)c1OC do in these assays?
YopH inh: -32; RecA intein inh: -1.4; Mtb growth: -14%; Arbovirus inh: -4; Mtb bLac sens: 2

Main list, previewed entries included:
How did COc1cc(CN2CCC(C(=O)N3CCN(c4ccccc4F)CC3)CC2)cc(OC)c1OC do in these assays?
YopH inh: -12; RecA intein inh: -1.3; Mtb growth: 3%; Arbovirus inh: -8; Mtb bLac sens: -3

Results for Cc1cccc(NC(=O)CCNS(=O)(=O)c2cccc3nonc23)c1 ?
RecA intein inh: -2.1; Mtb growth: 1%; Arbovirus inh: -6; Mtb bLac sens: 1

How did COc1cc(-c2nn3c(COc4ccccc4)nnc3s2)cc(OC)c1OC do in these assays?
YopH inh: -32; RecA intein inh: -1.4; Mtb growth: -14%; Arbovirus inh: -4; Mtb bLac sens: 2

What do the screens show for `COc1ccc(CN2CCCC(C(=O)c3cccc(Cl)c3)C2)cc1` (centres undefined)?
RecA intein inh: -0.1; Mtb bLac sens: -3

How did CCS(=O)(=O)N1CCCC(C(=O)NCCCOC(C)C)C1 (centres undefined) do in these assays?
YopH inh: -50; RecA intein inh: 1.4; Mtb growth: -18%; Arbovirus inh: 3; Mtb bLac sens: -8

Results for CCn1ccc(C(=O)Nc2sc3c(c2C(=O)OC)CCC3)n1 ?
RecA intein inh: 0.4; Mtb bLac sens: 73

How did CCOc1ccccc1Nc1ccc(C(=O)O)cc1N do in these assays?
RecA intein inh: 0.3; Mtb bLac sens: 2

What do the screens show for `Cc1ccc(C)c(OCC(=O)O/N=C(\N)c2ccccn2)c1`?
YopH inh: 14; RecA intein inh: 2.8; Mtb growth: 7%; Arbovirus inh: -19; Mtb bLac sens: -4

Results for CCOC(=O)c1cc2sc(C)cc2n1CC(=O)NCCc1ccccc1 ?
YopH inh: 1; RecA intein inh: -0.6; Mtb growth: -2%; Arbovirus inh: 2; Mtb bLac sens: -5

How did Cc1ccccc1CSc1nccn1-c1ccccc1 do in these assays?
YopH inh: -60; RecA intein inh: 7.9; Mtb growth: 8%; Arbovirus inh: -7; Mtb bLac sens: 3

Results for Cc1ccc(N(CC(=O)NCCSc2nc3ccccc3s2)S(=O)(=O)c2ccccc2)c(C)c1 ?
YopH inh: -14; RecA intein inh: 3.3; Mtb growth: 10%; Arbovirus inh: 0; Mtb bLac sens: -4

Results for CCc1ccc(NC(=O)c2cnn(-c3ccccc3)c2C2CCNCC2)cc1 ?
RecA intein inh: -0.2; Mtb growth: -7%; Arbovirus inh: 3; Mtb bLac sens: -10

What do the screens show for `O=C(c1ccc(F)cc1)N1CCC(C(=O)N2CCN(Cc3ccc4c(c3)OCO4)CC2)CC1`?
RecA intein inh: 0.1; Mtb bLac sens: -7

What do the screens show for `CCn1ncc(NC(=S)NCCc2ccc(OC)c(OC)c2)c1C(N)=O`?
RecA intein inh: 0.0; Mtb growth: 1%; Arbovirus inh: 8; Mtb bLac sens: 0

What do the screens show for `CN1C(=O)NC(c2ccc(C(F)(F)F)cc2)C2=C1CC(C)(C)CC2=O` (centres undefined)?
RecA intein inh: 5.9; Mtb bLac sens: -8

Results for CNS(=O)(=O)c1ccc(N=Cc2c(O)n(-c3ccccc3)c(=O)[nH]c2=O)cc1 ?
RecA intein inh: -3.1; Mtb growth: 2%; Arbovirus inh: 18; Mtb bLac sens: 3

How did N/C(=N\OC(=O)c1cccc(Br)c1)c1ccccc1 do in these assays?
YopH inh: -30; RecA intein inh: 2.2; Mtb growth: 0%; Arbovirus inh: 2

What do the screens show for `Cn1cc(Br)c(C(=O)NN2C(=O)C3C4C=CC(C5CC45)C3C2=O)n1` (centres undefined)?
Mtb growth: -6%; Arbovirus inh: 0; Mtb bLac sens: 3

Results for CCC(C)NC(=O)c1ccc(N2CC3CC(C2)c2cccc(=O)n2C3)c(NC(=O)c2ccc(Br)o2)c1 (centres undefined) ?
RecA intein inh: -2.3; Mtb bLac sens: 7

How did CC(CCc1ccccc1)NC(=O)C(Cc1ccccc1)NC(N)=O (centres undefined) do in these assays?
RecA intein inh: -1.3; Mtb bLac sens: -12

Results for CCOC(=O)C1CCCN(S(=O)(=O)c2ccc3c(c2)CC(C)N3C(=O)C2CC2)C1 (centres undefined) ?
RecA intein inh: -2.4; Mtb bLac sens: 2

What do the screens show for `O=C(Oc1ccccc1)Oc1ccc2c(c1)oc(=O)c1ccccc12`?
YopH inh: -29; RecA intein inh: -1.9; Mtb growth: 61%; Arbovirus inh: 21; Mtb bLac sens: 98

Results for O=C1CC(NS(=O)(=O)c2cc(F)ccc2F)CN1c1cccc(F)c1 (centres undefined) ?
RecA intein inh: -1.2; Mtb bLac sens: -2

What do the screens show for `COC(=O)C1CCN(C(c2cccs2)c2sc3nc(C)nn3c2O)CC1` (centres undefined)?
YopH inh: -22; RecA intein inh: 3.5; Mtb growth: 2%; Arbovirus inh: 9; Mtb bLac sens: 0; Arbovirus inh repeat: 3

What do the screens show for `COC(=O)N/N=C/c1cc(OC)c(O)c([N+](=O)[O-])c1`?
YopH inh: -9; RecA intein inh: -3.7; Mtb growth: -3%; Arbovirus inh: 0; Mtb bLac sens: 1

What do the screens show for `CC(=O)C1=C(NC(=O)c2ccc(F)cc2)CC2C1C2(C)C` (centres undefined)?
YopH inh: -54; RecA intein inh: 3.3; Mtb growth: -3%; Arbovirus inh: 0; Mtb bLac sens: 3

Results for O=C(C1CC1)N1CCc2cc(Br)cc(S(=O)(=O)N3CCN(c4ccccn4)CC3)c21 ?
YopH inh: -35; RecA intein inh: 2.2; Mtb growth: 12%; Arbovirus inh: 0; Mtb bLac sens: -1; Arbovirus inh repeat: -9

Results for CCOC(=O)C1Nc2ccc(C)cc2C2C=CCC12 (centres undefined) ?
RecA intein inh: 3.1; Mtb growth: 10%; Mtb bLac sens: -3

Results for CN1CCCCCC1=NC1=C(C#N)CCCC1 ?
YopH inh: 6; RecA intein inh: -1.6; Mtb growth: 2%; Arbovirus inh: -1; Mtb bLac sens: 7

Results for CC1CN(C(=O)COC(=O)c2cccs2)CC(C)O1 (centres undefined) ?
YopH inh: -2; RecA intein inh: -0.7; Arbovirus inh: 2; Mtb bLac sens: -6

What do the screens show for `CCOC(=O)C(NC(=O)c1ccccc1)(Nc1cccc(C)n1)C(F)(F)F` (centres undefined)?
RecA intein inh: -0.9; Mtb growth: -2%; Arbovirus inh: -5; Mtb bLac sens: -2

What do the screens show for `CCOC(=O)c1c(NC(=O)C2CCCCC2)sc2c1CCN(C(C)C)C2`?
RecA intein inh: -0.4; Mtb bLac sens: 5

What do the screens show for `CC(C)C(=O)NC(NC(=S)NC1CCS(=O)(=O)C1)C(Cl)(Cl)Cl` (centres undefined)?
YopH inh: -33; RecA intein inh: -1.1; Mtb growth: -3%; Arbovirus inh: 1; Mtb bLac sens: 5

How did N#CCc1nn2c3c(cnc2c1C#N)C(=O)CCC3 do in these assays?
RecA intein inh: -0.1; Mtb growth: 6%; Arbovirus inh: -1; Mtb bLac sens: -5

Results for Cn1c(Br)nc2c1c(=O)n(CC(O)COc1ccccc1)c(=O)n2C (centres undefined) ?
YopH inh: -22; RecA intein inh: -5.7; Mtb growth: 18%; Arbovirus inh: -5; Mtb bLac sens: 7

What do the screens show for `COC(=O)c1ccc(NC(=O)CSc2nnc(Cc3cccn3C)n2-c2ccc(F)cc2)cc1`?
YopH inh: -25; RecA intein inh: 2.2; Mtb growth: 8%; Arbovirus inh: 15; Mtb bLac sens: -8

What do the screens show for `O=C(c1nnc(Cc2ccc(Cl)cc2)o1)N1CCOCC1`?
YopH inh: -23; RecA intein inh: 0.6; Arbovirus inh: 2; Mtb bLac sens: -13; Arbovirus inh repeat: 2

Results for C/C(=N\NC(=O)c1ccc(Cn2cc(Br)cn2)o1)c1cccc(NC(=O)C(C)(C)C)c1 ?
YopH inh: -29; RecA intein inh: -3.3; Mtb growth: -3%; Arbovirus inh: 6; Mtb bLac sens: 3

What do the screens show for `Nc1nc2c(ncn2COC(CO)CO)c(=O)[nH]1`?
YopH inh: -29; RecA intein inh: -0.8; Mtb growth: 1%; Arbovirus inh: 9; Mtb bLac sens: -3

How did CCCNC(=O)COC(=O)CCC(=O)c1ccc(F)cc1 do in these assays?
YopH inh: -6; RecA intein inh: -2.5; Mtb growth: -3%; Arbovirus inh: 4; Mtb bLac sens: -7

Results for O=S(=O)(c1ccccc1)c1nc(-c2ccccc2)oc1NCCCN1CCOCC1 ?
RecA intein inh: 1.3; Mtb bLac sens: inconclusive

How did CC(=O)NS(=O)(=O)c1ccc(N)cc1 do in these assays?
YopH inh: -27; RecA intein inh: 2.2; Mtb growth: 0%; Arbovirus inh: -4; Mtb bLac sens: 1&-5

How did O=C(CSCc1ccc(Br)cc1)N1CCCC1 do in these assays?
RecA intein inh: -0.5; Mtb growth: -4%; Arbovirus inh: -1; Mtb bLac sens: -1

What do the screens show for `O=[N+]([O-])c1ccc(Cl)c(S(=O)(=O)n2ccnc2)c1`?
RecA intein inh: -1.4; Mtb growth: 5%; Mtb bLac sens: -1

What do the screens show for `Cc1cccc2c(N=NC(=O)C(C)n3cnc4ccccc4c3=O)c(O)[nH]c12` (centres undefined)?
RecA intein inh: 1.4; Mtb bLac sens: -7

Results for Cc1cc(C)c(S(=O)(=O)Nc2cccc(-n3cnnn3)c2)c(C)c1 ?
RecA intein inh: -0.3; Mtb bLac sens: 2

What do the screens show for `CC(C)C(NC(=O)C(NC(=O)C1OC2OC(C)(C)OC2C2OC(C)(C)OC12)C(C)C)C(=O)O` (centres undefined)?
RecA intein inh: -0.8; Mtb growth: -7%; Arbovirus inh: 4; Mtb bLac sens: 4

How did O=C(C(c1ccccc1)c1ccccc1)N1CCN(CCN2C(=O)c3cccc4cccc(c34)C2=O)CC1 do in these assays?
YopH inh: -14; RecA intein inh: -5.5; Mtb growth: -2%; Arbovirus inh: -24; Mtb bLac sens: -4

How did Cc1ccc(-c2cc(C(F)F)n3ncc(C(=O)N4CCCc5ccccc54)c3n2)cc1 do in these assays?
YopH inh: 26; RecA intein inh: -1.0; Mtb growth: -1%; Arbovirus inh: -4; Mtb bLac sens: -6

How did CCOc1ccc(-n2c(C)c(C(=O)O)c3cc(OC)ccc32)cc1 do in these assays?
RecA intein inh: -0.3; Mtb bLac sens: 1

What do the screens show for `CC(O)CNC(=O)C1CCN(Cc2ccc(OCc3ccccc3)cc2)CC1` (centres undefined)?
YopH inh: -43; RecA intein inh: -0.7; Mtb growth: -1%; Arbovirus inh: -7; Mtb bLac sens: -5

Results for CCCC(C)NC(=O)COC(=O)c1cccc(NS(C)(=O)=O)c1 (centres undefined) ?
Mtb growth: -6%; Mtb bLac sens: -1

What do the screens show for `O=C(NCCCN1CCOCC1)C(=O)NCC1OCCN1S(=O)(=O)c1cc(F)ccc1F` (centres undefined)?
RecA intein inh: -0.2; Mtb bLac sens: -12

Results for CCOC(=O)N1CCN(C(=O)c2ccc3c(c2)N(Cc2ccc(C)cc2)CCS3)CC1 ?
YopH inh: -21; RecA intein inh: 1.9; Mtb growth: 5%; Arbovirus inh: 18; Mtb bLac sens: -2

What do the screens show for `CC(=O)c1c(C)nc(-c2ccc(OCC(=O)Nc3cccc(C)c3C)cc2)n1O`?
RecA intein inh: -1.6; Mtb growth: 3%; Arbovirus inh: 0; Mtb bLac sens: -4

What do the screens show for `COc1ccc(-c2cnc(N)nc2-c2ccc(OC)cc2O)cc1`?
YopH inh: -49; RecA intein inh: -0.7; Mtb growth: -8%; Arbovirus inh: 12; Mtb bLac sens: 8

How did c1ccc(-c2ccc3c(c2)NCCN3)cc1 do in these assays?
RecA intein inh: -3.2; Mtb growth: -2%; Mtb bLac sens: -1

How did CCCCCCn1c(CN2CCC(C)CC2)nc2c1c(=O)n(C)c(=O)n2C do in these assays?
YopH inh: 16; RecA intein inh: 0.6; Mtb growth: 6%; Arbovirus inh: -6; Mtb bLac sens: -7

What do the screens show for `O=C(O)CCn1cc(C=C2C(=O)NC(=S)NC2=O)c(-c2cc3ccccc3oc2=O)n1`?
RecA intein inh: -4.3; Mtb growth: -3%; Arbovirus inh: 10

What do the screens show for `O=C(/C=N/O)NCc1cccnc1`?
YopH inh: -27; RecA intein inh: 3.4; Mtb growth: -1%; Arbovirus inh: 2; Mtb bLac sens: 4

What do the screens show for `Cc1ccc2cc(CN(CCCN3CCOCC3)C(=O)NC3CCCCC3)c(=O)[nH]c2c1C`?
YopH inh: -1; RecA intein inh: 0.4; Mtb growth: 1%; Arbovirus inh: 4; Mtb bLac sens: -4

Screening results: PubChem, several laboratories

The list is partial (hit frequency here may not be typical).
